# Screens from PubChem.
# gsp agonist – gsp mutant agonism. gsp mutant cells, cAMP HTRF, 30 min; control for the full effect not named in the record. actives 0.13% (n = 340,000). AID 624287. Potency, µM (doses to about 76.9 µM), for inactives: top-dose activation (cAMP increase), actives largely listed as activators; active = well fitted activation curve with a large enough effect; inconclusive = small, poorly fitted or top-dose-only effect, or another doubt; inactive = no such curve, though single readings can be large or run the other way; cell line not stated here;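 further: phosphodiesterase inhibitor Ro 20-1724 added with compounds to block cAMP breakdown; potency means the concentration at half of the fitted maximal effect; nearly all actives have a fitted effect of over 60% in size; about a fifth of the inactives were tested at one dose only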
#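 Cells in DMEM/10% FBS with G418 were pretreated with compounds in DMSO plus […] (300 uM stock) for 30 min at 37C. cAMP was measured by HTRF (cAMP-d2 plus anti-cAMP antibody-K) after 30 min at room temperature.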
# gsp antagonist – antagonists of gsp mutant (McCune-Albright syndrome). actives 0.4% (n = 340,000). Potency, µM (series often up to 76.9 µM), for the others: at the top dose activity change, negative = inhibition, hits mostly inhibitors. gsp-mutant cells, cAMP HTRF, 30 min; control for the full effect not named in the record. AID 624288; active = falling curve of any shape with a large fitted effect; inconclusive = falling curve, mostly with a smaller effect; inactive = flat or rising curve; cell line not stated here;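 further: intracellular cAMP measured with PDE inhibitor Ro 20-1724 present during compound exposure; potency means the concentration at half of the fitted maximal effect; on the % scale 0 is the no-effect control and ±100 the full control effect; nearly all actives have a fitted effect of over 65% in size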
#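 HTRF cAMP read-out (cAMP-d2 plus anti-cAMP antibody-K in lysis buffer, 30 min RT). Before lysis, cells are exposed to compounds with […] for 30 min at 37C in DPBS containing Ca/Mg, BSA and Tween 20.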
# Six1-Eya2 blk – Six1/Eya2 interaction inhibition | actives 0.56% (n = 360,000) | AlphaScreen GST-Six1/His-Eya2 binding, biochemical; active compounds read low; control for the full effect not named in the record | Q15475+O00167 | activity change, % (test concentration not listed); in the data active = activity change below about -65%; inconclusive = about -30% to -65%; inactive = above about -30%; further: on the % scale 0 is the no-effect control and ±100 the full control effect
#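 Six1/Eya2 binding was read as AlphaScreen signal after compounds were pinned into GST-Six1 plus His-tagged Eya2 (5X stock 250/500 nM) in pH 8.0 Tris/NaCl/TCEP buffer, beads added, then incubated 1 h, 37 C, dark.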
# D2 ag – human D2 receptor agonism in beta-arrestin assay | P14416 | DiscoveRx PathHunter D2 beta-arrestin, luminescence, 90 min; 100% = 57 uM dopamine signal | activation, % (concentration not given with the values) | actives 0.084% (n = 360,000); in the data active = activation above about 40%; inconclusive = about 15% to 40%; inactive = below about 15%; further: compound concentration not given in the record; the text of the record calls up to 30% inactive
# Target sequence (P14416 whole entry, looked up): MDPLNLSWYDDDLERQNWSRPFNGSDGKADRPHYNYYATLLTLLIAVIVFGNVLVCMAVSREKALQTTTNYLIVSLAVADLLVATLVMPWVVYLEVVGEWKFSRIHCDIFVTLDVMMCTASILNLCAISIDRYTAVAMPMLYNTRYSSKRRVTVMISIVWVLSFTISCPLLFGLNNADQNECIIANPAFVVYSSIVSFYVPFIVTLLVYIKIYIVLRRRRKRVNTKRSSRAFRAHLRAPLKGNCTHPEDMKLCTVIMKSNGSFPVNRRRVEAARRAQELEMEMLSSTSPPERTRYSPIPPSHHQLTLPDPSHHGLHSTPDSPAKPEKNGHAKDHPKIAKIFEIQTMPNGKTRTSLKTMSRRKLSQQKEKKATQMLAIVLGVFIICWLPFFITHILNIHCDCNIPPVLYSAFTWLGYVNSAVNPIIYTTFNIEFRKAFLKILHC
#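 DiscoveRx PathHunter D2 beta-arrestin cells (2,100/well) attached overnight, then compound-stimulated 90 min at 37 C in HBSS/10 mM HEPES/0.1% Tween-20 buffer; beta-galactosidase complementation read by luminescence after 1 h at ambient temperature. Dopamine 57 uM final (EC100) as control.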
# CtBP-E1A inh – CtBP/E1A binding inhibition | actives 0.49% (n = 340,000) | AlphaScreen GST-E1A/His-CtBP binding, 1536-well; active compounds read low; control for the full effect not named in the record | activity change, % (test concentration not listed); in the data active means activity change below about -65%; inconclusive means about -30% to -65%; inactive means above about -30%; further: on the % scale 0 is the no-effect control and ±100 the full control effect
#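 In 5 uL wells, 23 nL compound meets equimolar GST-E1A and His-CtBP (5X stock 125 nM each) for 2 h, 37 °C. Beads (5X, 50 ug/mL) then 1 h, 37 °C, dark.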
# D2 potentiator – human D2 receptor positive allosteric modulation; P14416; AID 624464; potentiation, % (test concentration not listed); DiscoveRx D2 beta-arrestin cells, luminescence, 90 min; 100% = 57 uM dopamine signal; actives 0.23% (n = 360,000); active = potentiation of 50% or more; inconclusive = 30% to 50%; inactive = 30% or less;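 further: compound concentration not given in the record; tested on top of an EC20 dose of dopamine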
#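 PathHunter D2 cells, attached overnight at 37 deg C, received compound in DMSO plus dopamine at EC20 (50 nM final) for 90 min at 37 deg C. Beta-arrestin recruitment was read as luminescence after 1 h with detection reagent at ambient temperature.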
# * = called active by the depositor; ? = inconclusive; . = not tested or not shown; [ ] = another dose, or the depositor's remark. This is a random part of the collection. Share with any hit: about 1.4%.
# Screens in order – gsp agonist	gsp antagonist	Six1-Eya2 blk	D2 ag	CtBP-E1A inh	D2 potentiator
> CCOc1ccc(NC(=O)c2ccc(CNc3c(NC4CCCCC4)c(=O)c3=O)cc2)cc1
    -2%	-3%	9	-4.2	-1	-11
> O=S(=O)(Nc1ccon1)c1cc(Cl)ccc1Cl
    9%	-6%	4	-1.9	8	-1
> CC(C)C[C@H](NC(=O)OC(C)(C)C)C(=O)N/N=C/C1=Cc2ccccc2OC1C (stereo partly drawn)
    0%	?	6	1.6	9	-14
> O=C(CN1CCOc2ccccc21)NCc1cccs1
    -33%[inhibitor]	-1%	-4	-1.7	5	-6
> O=C(O)C1CC=CCC1C(=O)Nc1cccc([N+](=O)[O-])c1 (stereo not drawn)
    -23%	0%	2	-7.1	.	-8
> Cc1nn(C(C)(C)C)c(OC(=O)c2ccc3c(c2)OCO3)c1Sc1ccccc1
    14%[15.4 µM]	-13%	-3	-5.9	-4	-8
> Cc1ccc(S(=O)(=O)Cc2ccc(C(=O)NC3CCCCCC3)o2)cc1
    6%	-20%	3	-5.7	.	-10
> Cc1cccc(C)c1OCc1cc(C(=O)N(Cc2c(C)nn(C)c2C)C2CC2)no1
    ?	-25%	-2	5.6	4	-7
> CO/N=C/C(C(C)=O)C(=O)Nc1ccc(Cl)cc1Cl (stereo not drawn)
    -1%	-3%	0	1.1	2	5
> COc1ccc(-c2ncccc2OC(=O)C23CC4CC(CC(C4)C2)C3)cc1OC
    -2%[15.4 µM]	-12%	-15	0.2	-2	-3
> CC1=CC(=C(C#N)C#N)C=C(C)N1CCC(C)C
    6%	-5%	6	-4.9	-18	-1
> O=C(Nc1ccnn1C1CCN(C(=O)CCc2ccc(F)cc2)CC1)C1CCOC1 (stereo not drawn)
    -30%[inhibitor]	-1%	-1	-3.5	0	9
> CCOc1cc(S(=O)(=O)NCc2ccncc2)c(C)cc1C
    1%	3%	2	4.8	-8	1
> CSc1nsc(SC)c1C(=O)O
    2%	0%	3	-2.3	3	2
> CC(=O)Nc1ccc(S(=O)(=O)NCCC(=O)OCC(=O)c2ccccc2)cc1
    -37%[inhibitor]	0%	5	-4.3	0	?
> Cc1ccc(S(=O)(=O)n2c(N)nc3ccccc32)cc1
    -14%	6%	2	-3.9	6	-1
> Cc1noc(C)c1C(=O)OCC(=O)NC(c1ccccc1)c1ccccc1
    4%	12%	-1	-0.3	4	-14
> CCN(CC)C(=O)C1CCCN(C(=O)Nc2ccc3nsnc3c2)C1 (stereo not drawn)
    ?	14%	4	2.8	-17	?
> CC(=O)Nc1ccc(NCC(=O)c2ccccc2)cc1
    -29%	-1%	12	-4.3	6	-8
> COc1cccc(NC(=O)c2ccc(NC(=O)C(C)(C)C)cc2)c1
    0%	1%	4	2.1	0	-5
> CC(C)(C)c1ccc(C(=O)/C(C#N)=C/c2cccs2)cc1
    6%	-10%	18	-2.3	-5	-2
> O=C(COC(=O)Cc1ccc(Cl)cc1)Nc1ccc2[nH]c(=O)[nH]c2c1
    15%[15.4 µM]	0%	-6	1.2	-1	5
> Cc1ccc(S(=O)(=O)N/N=C/c2cccc3nccnc23)cc1
    7%	2%	-2	-12	.	-34
> Cn1c(=O)c2c(ncn2CC(=O)N2CCN(C(=O)c3ccco3)CC2)n(C)c1=O
    7%[15.4 µM]	20%	5	-1.4	14	13
> CCCn1cnc2c(cnn2-c2ccc(F)cc2)c1=O
    0%	-1%	6	-2.3	-2	-1
> CCN(CC)C(=O)C1=C(C)Nc2ncnn2C1c1cccnc1 (stereo not drawn)
    -39%[inhibitor]	0%	-2	-1.8	.	-2
> CCOc1ccc(OCC)c(NC(=O)Cn2cccc2)c1
    -14%	7%	-20	-0.3	-19	-13
> CC1CCCN(C(=O)CSCC(=O)N=c2sc3ccccc3n2C)C1 (stereo not drawn)
    6%	-4%	-2	-3.4	-4	6
> COc1ccccc1N(C(=O)c1ccco1)C(C(=O)NC1CCCC1)c1cccnc1 (stereo not drawn)
    -18%	3%	2	0.5	2	-9
> CC(=O)N(C1=C(O)c2ccccc2C(=O)C1=O)C1CCCCC1
    -36%[inhibitor]	?	1	-6.4	-2	-15
> CSCC[C@H](N)C(=O)N1CCC(C(=O)N[C@@H](C)C(=O)NCc2ccc(F)cc2)CC1
    .	14%	1	-1.7	4	1
> Cc1cc(OCC(=O)N2CCC(O)CC2)c2c(C)cc(=O)oc2c1
    -26%	4%	3	8.5	-5	-8
> COc1ccccc1OC(=O)c1ccc(S(=O)(=O)N(C)C)cc1
    21%	-8%	0	-0.6	4	-12
> COc1ccccc1NS(=O)(=O)c1ccc2oc(SC)nc2c1
    9%[15.4 µM]	-3%	-11	-6.1	-9	7
> Cc1c(Cl)cccc1N=c1c([N+](=O)[O-])nn(-c2ccccc2)n1O
    ?	8%	-5	4.7	-6	?
> COc1ccccc1N(CC(=O)NCc1ccccc1)S(C)(=O)=O
    -16%	6%	7	1.5	-3	-15
> O=C(c1ccc(F)cc1F)N1CCN(c2ccccn2)CC1
    14%[15.4 µM]	6%	6	-5.9	-5	-9
> COc1ccc(S(=O)(=O)/N=C2\C=C(NS(=O)(=O)c3ccccc3)C(=O)c3ccccc32)cc1
    -3%	-25%	?	-7.0	?	-6
> CC(=O)NC(=S)Nc1ccc(S(=O)(=O)Nc2ncccn2)cc1
    ?	3%	5	-0.2	2	3
> COc1ccc(NC(=O)c2cc(-c3ccc(C)o3)nc3ccccc23)cc1OC
    5%	-8%	?	0.0	?	3
> O=C1C(O)=CC(=C(c2ccccc2)c2ccccc2)c2ccccc21
    -34%	-8%	?	8.8	?	-5
> CSc1nnc(C)c(=O)n1COC(=O)/C=C/c1ccccc1
    1%	-12%	-3	1.3	-18	4
> O=C(CCc1nnc2n(Cc3ccccc3)c(=O)c3ccccc3n12)NCCCN1CCCCC1
    27%	13%	-1	-8.2	-2	-31
> O=C(COC(=O)Cn1cnc2ccccc2c1=O)NCC12CC3CC(CC(C3)C1)C2
    -5%	2%	-2	-3.5	2	9
> Cc1cccc(-n2cc(CN(C)Cc3nccn3C)c(-c3cccc(F)c3)n2)c1
    -18%	?	0	-4.5	.	-20
> CCc1nc2ccccc2c(C(=O)OCC(=O)NCc2ccco2)c1C
    9%	-9%	-9	-5.0	-4	20
> CC(C)c1ccc(NC(=S)NNC(=O)c2cccnc2)cc1
    17%	-15%	-3	-7.9	-2	-4
> CCc1ccc2[nH]c(=O)c(CN(CCN3CCCC3)C(=O)NC3CCCCC3)cc2c1
    2%	-3%	-7	-2.7	0	-31
> O=C(Nc1ccncc1)Nc1ccc(Cl)cc1Cl
    -11%	6%	-1	-6.4	0	-19
> Cc1nc(NC(=O)COC(=O)CCC(=O)c2cccs2)c(Cl)cc1Cl
    0%	-8%	-23	1.7	.	3

# Continued:
# Screens in order – gsp agonist	gsp antagonist	Six1-Eya2 blk	D2 ag	CtBP-E1A inh	D2 potentiator
> CN(C)c1ccc(/C=N/NC(=O)c2ccccc2)cc1
    0%	-14%	5	0.6	1	-10
> COC(=O)Cc1c(O)ccn(CCc2ccc(OC)c(OC)c2)c1=O
    -1%[15.4 µM]	19%	8	-1.1	-1	-4
> Cc1ccc(C(=O)NCc2ccccn2)c(Cl)c1
    -30%[inhibitor]	8%	-1	-2.2	0	-6
> Nc1ccc2c(c1)C1(CCC2)NC(=O)NC1=O (stereo not drawn)
    -16%	.	-17	-4.8	3	-6
> CC(=O)N1CCN(c2nnc(-c3ccccc3)c3ccccc23)CC1
    1%	-15%	-1	-4.6	-24	-20
> CCCC(=O)c1ccc(N2CCN(S(=O)(=O)c3ccc(C)cc3)CC2)c(F)c1
    6%	2%	-1	-2.8	-6	-1
> CCCC[C@@H]1CNC(=O)C(=O)N1CCCc1cc(OC)c(OC)c(OC)c1
    3%	10%	26	0.3	29	-3
> Cc1onc(-c2ccccc2)c1C(=O)N1CCN(CCc2ccccc2)CC1
    6%	-4%	5	-2.4	14	-16
> O=C(Nc1ccc(F)cc1F)C1(c2cccs2)CCOCC1
    ?	0%	0	1.4	6	6
> CCc1nn(CCCC(=O)Nc2ccc(C)c(C)c2)c(=O)c2cc3occc3n12
    -13%	-14%	-1	0.9	1	-9

# An excerpt from above in order of heavy-atom count, high to low:
# Screens in order – gsp agonist	gsp antagonist	Six1-Eya2 blk	D2 ag	CtBP-E1A inh	D2 potentiator
> CCCC(=O)c1ccc(N2CCN(S(=O)(=O)c3ccc(C)cc3)CC2)c(F)c1
    6%	2%	-1	-2.8	-6	-1
> CC(=O)N1CCN(c2nnc(-c3ccccc3)c3ccccc23)CC1
    1%	-15%	-1	-4.6	-24	-20
> CN(C)c1ccc(/C=N/NC(=O)c2ccccc2)cc1
    0%	-14%	5	0.6	1	-10
> Cc1ccc(C(=O)NCc2ccccn2)c(Cl)c1
    -30%[inhibitor]	8%	-1	-2.2	0	-6

# The list continues.
# Screens in order – gsp agonist	gsp antagonist	Six1-Eya2 blk	D2 ag	CtBP-E1A inh	D2 potentiator
> COC(=O)c1sc(NC(C)=O)c(C(=O)OC)c1C
    -20%	12%	0	-4.6	0	-18
> COc1ccc(N(C)C(=O)c2ccc3c(c2)nnn3C)cc1
    18%[15.4 µM]	-15%	5	-1.7	11	-5
> N#Cc1c(N2CCN(c3ccc(F)cc3)CC2)nc(N)c2c(N)nc3c(c12)CC(=O)N3C1CC1
    -9%[15.4 µM]	-21%	-82*	1.6	-78*	0
> Cc1cc(NC(=O)c2cc(-c3ccco3)on2)nn1Cc1ccc(Cl)cc1
    0%	-3%	3	-0.1	-24	-7
> COc1ccc2[nH]c3c(NCCCN4CCCC4=O)ncnc3c2c1
    30%	2%	-21	-1.4	-27	-2
> Cc1cc(NC(=O)c2cc(-c3ccco3)on2)n(-c2ccccc2)n1
    11%	-13%	2	3.8	-1	-3
> COc1ccccc1-c1cnc(C(O)c2ccc(C)cc2C)[nH]1 (stereo not drawn)
    .	.	0	-4.7	-11	-13
> CCCN1CNc2c(c(=O)[nH]c(=S)n2-c2ccccc2Cl)C1
    8%[15.4 µM]	-2%	1	-4.4	-1	2
> COc1ccc(CCNC(=O)c2nonc2N)cc1OC
    0%	11%	3	1.0	-9	-15
> Cc1c(/C=N\NC(=O)c2cccc(F)c2)cnn1C
    6%	2%	5	-1.2	6	-3
> NC(=O)CC(NC(=O)Cc1ccc(Cl)cc1)c1ccc(NC2CCCCC2)c([N+](=O)[O-])c1 (stereo not drawn)
    .	-12%	0	-2.7	7	-2

# Single records, from the list above.
# Record of Cc1cc(NC(=O)c2cc(-c3ccco3)on2)n(-c2ccccc2)n1 : gsp agonist = 11%; gsp antagonist = -13%; Six1-Eya2 blk = 2; D2 ag = 3.8; CtBP-E1A inh = -1; D2 potentiator = -3
# Record of CC1CCCN(C(=O)CSCC(=O)N=c2sc3ccccc3n2C)C1 (stereo not drawn) : gsp agonist = 6%; gsp antagonist = -4%; Six1-Eya2 blk = -2; D2 ag = -3.4; CtBP-E1A inh = -4; D2 potentiator = 6
